# Bioassay records deposited in PubChem by National Center for Advancing Translational Sciences (NCATS).
# NPR1 antag = antagonists of human natriuretic peptide receptor Npr1. P16066. HEK293 hNpr1 GloSensor cGMP, ANP-stimulated luminescence. Potency, µM (titrated, usually from 46.3 µM), without a hit: at the top dose activity change, negative = inhibition, hits mostly inhibitors. 1.6% of 76,000 active. AID 1347048; active = well fitted inhibition curve with a large enough effect; inconclusive = small, poorly fitted or top-dose-only effect; inactive = no such curve, though single readings can be large or run the other way;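 note: nearly all actives have a fitted effect of over 60% in size; nearly all hits also lower the signal before the agonist is added; a reference antagonist and vehicle were the controls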
# Target sequence (P16066 whole entry, looked up): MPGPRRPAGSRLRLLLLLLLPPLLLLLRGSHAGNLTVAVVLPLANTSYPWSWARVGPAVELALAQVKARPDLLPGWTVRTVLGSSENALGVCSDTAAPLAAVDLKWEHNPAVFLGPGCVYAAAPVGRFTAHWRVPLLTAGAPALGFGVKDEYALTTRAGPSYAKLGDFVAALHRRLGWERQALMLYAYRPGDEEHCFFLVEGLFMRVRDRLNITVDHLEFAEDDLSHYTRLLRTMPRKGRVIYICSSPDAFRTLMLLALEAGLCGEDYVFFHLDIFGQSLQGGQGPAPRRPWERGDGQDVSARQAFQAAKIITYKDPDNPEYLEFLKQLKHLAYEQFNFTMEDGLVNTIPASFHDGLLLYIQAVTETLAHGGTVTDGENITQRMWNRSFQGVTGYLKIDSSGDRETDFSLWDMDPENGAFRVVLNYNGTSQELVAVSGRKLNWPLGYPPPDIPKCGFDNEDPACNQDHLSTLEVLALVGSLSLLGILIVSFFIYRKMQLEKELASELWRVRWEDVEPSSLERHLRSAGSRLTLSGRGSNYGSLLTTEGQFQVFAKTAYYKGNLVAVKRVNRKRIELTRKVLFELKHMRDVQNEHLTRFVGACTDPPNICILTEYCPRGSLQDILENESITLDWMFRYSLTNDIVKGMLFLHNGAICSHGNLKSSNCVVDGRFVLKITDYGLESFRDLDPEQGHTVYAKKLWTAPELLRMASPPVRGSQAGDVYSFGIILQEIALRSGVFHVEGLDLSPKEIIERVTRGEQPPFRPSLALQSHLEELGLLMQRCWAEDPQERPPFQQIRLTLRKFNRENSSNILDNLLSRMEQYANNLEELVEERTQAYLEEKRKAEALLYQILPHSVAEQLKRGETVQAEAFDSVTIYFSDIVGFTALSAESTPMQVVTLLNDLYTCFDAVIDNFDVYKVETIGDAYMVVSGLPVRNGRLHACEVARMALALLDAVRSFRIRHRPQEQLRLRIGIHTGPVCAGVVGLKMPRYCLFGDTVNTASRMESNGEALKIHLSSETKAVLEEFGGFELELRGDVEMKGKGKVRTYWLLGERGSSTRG
#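 Compound pre-incubated 30 min at room temperature on GloSensor-loaded HEK293 cells stably carrying hNpr1 and the pGS-40F cGMP biosensor. Stimulation uses hNppA at 0.1 nM final; luminescence is taken at baseline and 20 min post-agonist.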
# * hit, by the source's call; ? = inconclusive; [ ] = another dose, or the depositor's remark. % is set by controls: 0 for no effect and ±100 for the full control effect; potency is the fitted concentration of half-maximal effect. Some of the compounds tested (hit frequency here may not be typical).
mol	NPR1 antag
O=C(NCC1(c2ccccc2F)CCCC1)[C@H]1CCC[C@@H](O)C1	8.0%
O=C(c1ccccc1OCC1CCCN(C(=O)c2n[nH]c3ccccc23)C1)N1CCOCC1 (stereo not drawn)	-0.7%
O=C1N[C@H](CCC(=O)N2CCC(c3nnc4ccccn34)CC2)C(=O)Nc2ccccc21	-0.9%
COc1ccc(-c2ccnc(-c3nnc(C)n3C3CCCCC3)c2)cc1OC	-2.2%[70.6 µM]
Cc1ccc(S(=O)(=O)N(C)C(C)c2cccs2)cc1 (stereo not drawn)	3.0%[70.6 µM]
Cc1ccc(NC(=O)N[C@H]2C[C@@](O)(C(=O)N[C@@H](Cc3ccc(O)cc3)C(N)=O)C[C@@H](O)[C@@H]2O)cc1	2.4%
O=C(NC1CCCC1)C1CCN(C(=O)N2CC3CC(C2)[C@H]2CCCC(=O)N2C3)CC1 (stereo partly drawn)	-1.8%
Cc1cc(N)n(CC(=O)N[C@@H]2COCC[C@H]2Oc2ccc(C(N)=O)cc2)n1	-0.3%
Cc1ccccc1N1Cc2c(NCC3CCCCC3)ncnc2N(C)CC1=O	-1.2%
Fc1ccc2nc(CO[C@H]3CN(CC4CC4)C[C@H]3F)[nH]c2c1	-1.2%[70.6 µM]
O=C(c1cc2c(s1)CCC(C(=O)N1CCN(c3ccccc3)CC1)C2)N1CCOCC1 (stereo not drawn)	-8.2%
CN(Cc1cccnc1)c1nc2c(c(=O)[nH]1)CCN(Cc1ccccc1C(F)(F)F)CC2	?
CCOc1ccc(NC(=O)N2CC3CC(C2)[C@H]2CCCC(=O)N2C3)cc1 (stereo partly drawn)	5.8%
Cc1ccc(C)c2c(C)c(C(=O)N3CCCC(O)(CN4CCCC4)C3)[nH]c12 (stereo not drawn)	0.3%
O=C(NC1CC1)[C@@H]1C[C@H](Oc2ccccc2)CN1C(=O)C1(c2ccccc2)CC1	1.5%
COc1cccc(CN2CCC3(CC2)NCCc2c3[nH]c3ccc(OC)cc23)c1	0.2%
CC(C)C[C@@H](N)C(=O)N1CCC2(CC1)Nc1ccccc1NC2=O	-3.1%
CNC(=O)c1cc[nH]c1C1CCCN(C(=O)CC2=CCCCC2)C1 (stereo not drawn)	-2.9%
Cc1nc(N2CCC(NC(=O)c3ccc(F)cc3)CC2)cc(C(F)(F)F)n1	-25.1%
Cc1cccc(C(=O)N2CCCC(c3nn[nH]n3)C2)c1 (stereo not drawn)	1.1%
COc1cccc(C(=O)N2CCC(N3C[C@H](O)C[C@H]3C(=O)Nc3cccc(C)c3)CC2)c1	2.9%
Cc1nc(CN2CCN(C(=O)c3cnc(-c4cccnc4)nc3)CC2)no1	-4.0%
O=C(Nc1ccc(Cl)nc1)c1ccc2cncn2c1	15.7%[70.6 µM]
C=CCN1CC2(CCC1=O)CCN(S(=O)(=O)c1ccc(F)cc1)CC2	4.2%
Cc1cnn(CC(=O)N2CCCCCCNC(=O)CC2)c1	1.8%
O=C(c1ccc(Cl)nc1)N1CCC(c2nn(-c3ccc(Cl)cc3)c(=O)[nH]2)CC1	-7.9%
Cc1c(-c2ccccc2)[nH]c2c(CNC(=O)c3ccc(=O)n(C)n3)cc(Cl)cc12	11.2µM*
COc1ccccc1NC(=O)Nc1ccnn1C1CCN(C(=O)C(C)O)CC1 (stereo not drawn)	0.3%
CC(C)c1nc(-c2ccc(OC3CCN(C(=O)C4(c5ccccc5)CC4)C3)cc2)no1 (stereo not drawn)	?
CN(Cc1ccccc1)C(=O)CC1CCN(C(=O)CC2CCCC2)C1 (stereo not drawn)	10.2%
CCCC(=O)NC1CCN(c2cnn(CC)c(=O)c2)CC1	0.6%
Cn1cc(CN2CCC3(CC2)COc2ccccc2C(=O)N3)cn1	16.6%[70.6 µM]
CCOC(=O)CCCOc1cccn2c(=O)c(-c3cc(C)n(-c4ccccc4)n3)c(C)nc12	2.2%
Cn1nccc1C(=O)N1CCCC(Cc2noc(-c3ccccn3)n2)C1 (stereo not drawn)	19.9%
COCC(=O)N1CCCN(C(=O)C2CC2)c2ccccc21	3.5%
CCc1noc(-c2ccn3c(CNC(=O)Cc4ccc(C)cc4)nnc3c2)n1	0.6%
CNC(=O)[C@@H]1CN(C(=O)c2ccc3c(c2)OCO3)C[C@H]1c1n[nH]c(C)n1	5.2%
O=C(NCCCN1CCOCC1)C1CCc2ncc(-c3ccsc3)n2C1 (stereo not drawn)	-0.5%
O=C(CN1CCOCC1)N[C@@H]1CCOC[C@H]1Oc1ccc(C(=O)O)cc1	4.1%
O=C(c1nnn2c1COC(c1ccc(Cl)cc1)C2)N1CCN(C(=O)C2(c3ccccc3)CC2)CC1 (stereo not drawn)	?
Cc1ccc2nc(C3CCN(Cc4cccc(-c5ccsc5)c4)CC3)[nH]c(=O)c2c1	0.3%
COc1ccc(CN2C[C@@H](CO)[C@H](c3ccncc3)C2)c(OC)c1	-12.2%
Cc1ccc(C2Cn3nnc(C(=O)N4CCC(C(=O)NCC5CC5)CC4)c3CO2)cc1 (stereo not drawn)	-4.1%
COc1ccc(OC)c(CN2CC[C@@H]3OCC(=O)N(Cc4c[nH]c5ccccc45)[C@H]3CC2)c1	-4.5%
COc1ccc(NC(=O)N[C@H]2C[C@@H](C(=O)N[C@H](Cc3c[nH]c4ccccc34)C(N)=O)N(C(C)=O)C2)cc1	1.3%

# A draw from above in order of number of heavy atoms, low to high.
mol	NPR1 antag
Cn1cc(CN2CCC3(CC2)COc2ccccc2C(=O)N3)cn1	16.6%[70.6 µM]
Cc1ccc(C2Cn3nnc(C(=O)N4CCC(C(=O)NCC5CC5)CC4)c3CO2)cc1 (stereo not drawn)	-4.1%
O=C(c1nnn2c1COC(c1ccc(Cl)cc1)C2)N1CCN(C(=O)C2(c3ccccc3)CC2)CC1 (stereo not drawn)	?

# The list continues:
mol	NPR1 antag
CNC(=O)[C@@H]1CN(C(=O)c2cc(C)no2)C[C@H]1COC	2.7%
Cc1ccc(F)cc1-c1ccc(COc2ccc3c(cnn3CCC(=O)O)c2)cc1	-13.6%[70.6 µM]
COc1ccc(CN2C[C@@H]3C[C@H]2C(=O)N(Cc2ccccn2)c2ccccc2O3)cc1	-14.5%[70.6 µM]
CN1CCC(N2CCN(C(=O)C3CCOCC3)CC2)C1=O (stereo not drawn)	2.2%
CCn1ncc(NC(=O)Cn2ncc3cc(-c4ccc(F)cc4F)ccc32)n1	12.6µM*
O=C1NCCC[C@@H]1NC(=O)[C@H]1CN(C(=O)c2cccc(F)c2)CCN1C(=O)c1cccs1	-0.2%
COc1ccc(C(=O)N2CCN(c3cc(-c4cccs4)[nH]n3)CC2)cc1	?
O=[S+]([O-])(Nc1ccccc1)c1ccc2c(c1)OCCN(Cc1ccccc1F)C2	?
O=[S+]([O-])(c1ccccc1)N1CC2(COCCN(Cc3cc(F)ccc3F)C2)C1	-2.7%[70.6 µM]
O=C(Nc1ccccc1)N1CCC2(CC1)CC(N1CCOCC1)CCO2 (stereo not drawn)	7.4%
COc1ccc(CN[C@H](C)c2onc(-c3ccc(F)cc3)c2C(=O)O)cc1	2.4%[70.6 µM]
CCCc1ccc2oc(C(=O)N(C)CCC3CCCCO3)c(C)c2c1 (stereo not drawn)	5.0%
CCN(CC)Cc1cnc2c(C(=O)NC(C3CC3)C3CC3)cnn2c1	6.7%
CC(c1n[nH]c(=O)n1CCc1ccccc1F)n1cccn1 (stereo not drawn)	0.3%
Cn1cc(CN2CCCCCNC(=O)[C@@H]3CCC[C@@H]32)c2ccccc21	-11.5%
CC(C)c1noc(-c2cn(C3CCCN(C(=O)c4cccc(Cl)c4)C3)nn2)n1 (stereo not drawn)	-27.7%
COCCc1noc([C@@H]2CN(C3CCCC3)C[C@H]2CO)n1	-2.7%
COc1ccc(C(=O)N2C(C(=O)N3CCCC3)COC23CCN(C(=O)C2CCC2)CC3)cc1 (stereo not drawn)	3.3%
COc1cc2c(cc1OC)C(C[C@H]1CN(C(=O)Nc3ccc(Cl)cc3)CC[C@H]1CC(=O)O)=NCC2	-0.2%
C[C@@H]1C(=O)O[C@H]2[C@H]1CC[C@@]1(C)Cc3sc(NC(=O)c4ccc(F)c(Cl)c4)nc3[C@@H](C)[C@H]21	-15.6%
Cn1c(C(=O)N2CCN(c3ccccn3)CC2)cc2c1CCN(Cc1ccccc1)C2	-19.5%
O=C1CCN(C(=O)c2cccnc2)CCCC(C(=O)NCCc2ccccc2)CCN1 (stereo not drawn)	3.3%
COc1ccc(CCNC(=O)C[C@@H]2c3nc(NC(=O)CC(C)(C)C)sc3C[C@@H]3[C@](C)(CO)[C@H](O)CC[C@]32C)cc1OC	2.8%
O=C1NCCCN1C1CCN(Cc2ccncc2)CC1	1.0%[70.6 µM]
COCCN1CCCCCC(O)c2cc(C(=O)N3CCN(c4ncccn4)CC3)ccc21 (stereo not drawn)	-2.6%
CCCCc1ccc(NC(=O)CN2C(=O)C(c3ccccc3)=NC23CCCC3)cc1	-9.5%
O=C([C@@H]1C[C@@H](c2ccc(F)cc2)N(Cc2ccccc2)C1)N1CCN(c2ccccn2)CC1	?
Clc1ccc(C2Cn3nnc(-c4nc(C5CC5)no4)c3CO2)cc1 (stereo not drawn)	?
COc1cccc(CN2CCCC3(CN[S+](=O)([O-])c4ccccc4N3)C2)c1 (stereo not drawn)	8.4%
CC(=O)Nc1ccccc1-c1c(C)nn2c1N(C(=O)Cc1ccccc1)CCC2	-1.5%[70.6 µM]

# The list continues:
Compound	NPR1 antag
COCCNC(=O)c1ccc2c(c1)N(C)C(CC(=O)Nc1ccc(C)nc1)CO2 (stereo not drawn)	1.4%
COCc1nncn1C1CCN(S(=O)(=O)c2ccccc2Cl)CC1	4.2%
CC(C)c1noc(-c2cccn3c(CNC(=O)c4cccnc4)nnc23)n1	-0.7%
Cc1ccc(C(=O)N2CCN(c3cc(-c4cccs4)[nH]n3)CC2)cc1	-0.6%
CCC(=O)N1CCc2c(C(=O)NCc3cccc(F)c3)cccc21	4.8%
C[S+](=O)([O-])N1C[C@H](C(=O)Nc2cccc(Cl)c2)C[C@@H]1c1ccc(F)cc1	1.3%[70.6 µM]
COc1ccc2nc(C[C@@H]3C[C@@H](C(C)C)[C@H](CNCc4ccc(NC(C)=O)cc4)C=C3C)[nH]c2c1	-14.8%
O=C(Cn1ccn2nc3c(c2c1=O)CCCC3)NC1CCCC1	0.5%
CCN(C(=O)CN1C(=O)NC2(CCC(C(C)(C)C)CC2)C1=O)c1cccc(C)c1 (stereo not drawn)	-5.2%
CCN1CCCN(C(=O)c2ccco2)CC12CCOCC2	0.8%
COCCc1noc(C2CCCN(C(=O)Cn3ncc4ccccc4c3=O)C2)n1 (stereo not drawn)	6.0%
C[C@@H](NC(=O)c1nc2ccccc2[nH]1)c1onc(-c2ccc(F)cc2)c1C(=O)O	-1.2%[70.6 µM]
Cc1ccc(-c2noc([C@@H]3Cc4nc[nH]c4CN3Cc3cccc(C#N)c3)n2)cc1	-19.6%[70.6 µM]
O=C(Cc1ccccc1Cl)NC1CCN(c2cc(-c3ccc(F)cc3)[nH]n2)C1 (stereo not drawn)	-14.6%
COCc1nc(C2CCCN(C(=O)C3CCC3)C2)no1 (stereo not drawn)	-28.0%
O=C(Nc1cccc(F)c1)C1=NO[C@@H]2CN(c3ccccn3)C[C@H]12	3.0%[70.6 µM]
CN(C)[C@@H]1CN(C2CCSCC2)CC[C@@H]1CNC(=O)C1CC1	16.2%
COCC(=O)N1CCC(Oc2ccc(C(=O)N(C)C)cn2)CC1	0.7%
CC(C(=O)NCc1ccccc1)C1CCOCC1 (stereo not drawn)	2.4%
COC(=O)[C@@H](Cc1cccnc1)NC(=O)[C@H]1CN(S(=O)(=O)c2ccccc2)CCN1C(=O)N1CCOCC1	-7.5%
CN(CCc1ccncc1)C(=O)CCc1ccnc(N2CCOCC2)c1	4.2%
COCc1cc(C[C@@H]2CC[C@H](O)[C@@H](CN(C(=O)Nc3cccc(OC)c3)C(=O)Nc3cccc(OC)c3)O2)no1	2.9%
Cc1cc(C(=O)N2CCCCCCn3c(nnc3-c3ccc(F)cc3)CC2)nn1C	-3.5%
O=C1NCN(Cc2ccc(Cl)cc2)C12CCN(Cc1cccnc1)CC2	18.0%
COc1cccc(N2CC(C(=O)NCCCc3ccccc3)NC2=O)c1 (stereo not drawn)	-6.9%
Cc1[nH]cnc1CN1CCCC(c2[nH]ncc2Cc2ccccc2)C1 (stereo not drawn)	4.2%
CCc1cc(=O)n(CC(=O)Nc2ccccc2OC)c(N2CCOCC2)n1	-16.2%
CC1(c2ccccc2)N(Cc2ccccc2)C(=O)OC12CCN(Cc1ccc(O)cc1)CC2 (stereo not drawn)	-19.3%
COCCNC(=O)c1ccc(OC2CCN(Cc3cnc(SC)nc3)CC2)c(Cl)c1	-17.2%

# Part of the list above, as labelled records.
Structure: Cc1cc(C(=O)N2CCCCCCn3c(nnc3-c3ccc(F)cc3)CC2)nn1C
  NPR1 antag: -3.5%

Structure: COCCNC(=O)c1ccc(OC2CCN(Cc3cnc(SC)nc3)CC2)c(Cl)c1
  NPR1 antag: -17.2%

Structure: CC1(c2ccccc2)N(Cc2ccccc2)C(=O)OC12CCN(Cc1ccc(O)cc1)CC2 (stereo not drawn)
  NPR1 antag: -19.3%

# Shown as a hit in NPR1 antag (from the list above):
Compound	NPR1 antag
Cc1c(-c2ccccc2)[nH]c2c(CNC(=O)c3ccc(=O)n(C)n3)cc(Cl)cc12	11.2µM*
CCn1ncc(NC(=O)Cn2ncc3cc(-c4ccc(F)cc4F)ccc32)n1	12.6µM*
